Source: PubChem (National Center for Advancing Translational Sciences (NCATS))
LASV entry inh: qHTS for Inhibitors of binding or entry into cells for Lassa Virus; Potency, µM (top dose mostly 37.9 µM), for the others: at the top dose activity change, negative = inhibition, usual class: inhibitors; 300,000 tested, 1.2% active; Lassa virus pseudotype entry inhibition, cell reporter; control for the full effect not named in the record; AID 540256, 2011; active means well fitted inhibition curve with a large enough effect; inconclusive means small, poorly fitted or top-dose-only effect, or effect the other way; inactive means flat fitted curve, though single readings scatter; tested in HEK293 cells; also: % is scaled to controls: 0 for no effect and ±100 for the full control effect; nearly all actives have a fitted effect of over 50% in size; luciferase read-out
Marburg entry inh: qHTS for inhibitors of binding or entry into cells for Marburg Virus | Marburg virus pseudotyped entry inhibition, cell reporter; control for the full effect not named in the record; about a third of the inactives were read at about 46 µM | Potency, µM (highest dose often 37.8 µM), for inactives: at the highest dose activity change, negative = inhibition, most hits filed as inhibitors | 300,000 tested, 1.8% active | AID 540276, 2011; active = well fitted inhibition curve with a large enough effect; inconclusive = small, poorly fitted or top-dose-only effect, or effect the other way; inactive = flat fitted curve, though single readings scatter; tested in HEK293 cells; about a fifth of its hits are not listed in these tables; also: % is scaled to controls: 0 for no effect and ±100 for the full control effect; luciferase read-out
RE007 growth inh: qHTS Assay for Inhibitors of the HIV-1 protein Vpr | S. pombe RE007 Vpr strain, BacTiter-Glo ATP luminescence, 24 h; control for the full effect not named in the record | Potency, µM (highest dose often 92.2 µM), inactives show at the top dose activity change, negative = less growth | 360,000 tested, 0.21% active; active = well fitted falling curve with a large enough effect; inconclusive = small, poorly fitted or top-dose-only effect; inactive = no such curve, though single readings can be large or run the other way;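 also: % is scaled to controls: 0 for no effect and ±100 for the full control effect; nearly all actives have a fitted effect of over 50% in size; the assay follows cell death caused by Vpr and the record does not say whether a fall means rescue or toxicity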
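Fission yeast strain RE007, carrying one chromosomally integrated HIV-1 vpr copy, was seeded at OD 0.01 in PMG+AL medium with 23 nL pinned compound. After 24 h at 30 °C and 99% humidity, viability was read by BacTiter-Glo luminescence.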
Cruzain Triton: qHTS Assay for Promiscuous and Specific Inhibitors of Cruzain (with detergent). Potency, µM, without a hit: max response, negative = inhibition, most hits filed as inhibitors. AID 1478, 2009. Cruzipain (Trypanosoma cruzi), P25779. 200,000 tested, 0.43% active. purified cruzain, Z-FR-AMC fluorescence, 0.01% Triton; active = well fitted curve in the direction sought with a large enough effect; inconclusive = small, poorly fitted or top-dose-only effect, or another doubt; inactive = no such curve, though single readings can be large; an effect the other way counts as inactive or inconclusive;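 also: plate controls were neutral wells for no effect and buffer without enzyme for full effect; nearly all actives have a fitted effect of over 40% in size; top concentration of the series not given in the record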
Target sequence (P25779 123-467 limits assumed): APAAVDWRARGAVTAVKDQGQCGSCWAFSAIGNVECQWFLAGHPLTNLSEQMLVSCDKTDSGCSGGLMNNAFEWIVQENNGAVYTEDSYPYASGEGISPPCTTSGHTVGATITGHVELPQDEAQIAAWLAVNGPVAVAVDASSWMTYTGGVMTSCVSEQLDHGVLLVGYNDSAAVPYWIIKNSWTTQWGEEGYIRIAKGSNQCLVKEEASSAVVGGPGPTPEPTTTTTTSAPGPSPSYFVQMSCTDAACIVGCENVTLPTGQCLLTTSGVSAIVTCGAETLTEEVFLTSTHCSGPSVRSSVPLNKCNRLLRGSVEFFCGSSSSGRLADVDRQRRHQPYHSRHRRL
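Steps: dispense cruzain (1.5 nM final) in acetate buffer pH 5.5 with DTT and 0.01% Triton X-100; pin-transfer compounds; incubate 15 min RT; add Z-FR-AMC (2 uM final); read fluorescence every 30 s, using the 60 s intensity change.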
2A StopGo: High Throughput Screening for Foot and Mouth Disease Virus Antivirals. human cells with a luciferase reporter of 2A StopGo recoding; control for the full effect not named in the record. Potency, µM (series often up to 57.9 µM), for the others: at the top dose signal change, negative = less light. 410,000 tested, 1.2% active; active = well fitted falling curve with a large enough effect; inconclusive = small, poorly fitted or top-dose-only effect; inactive = no such curve, though single readings can be large or run the other way; tested in HEK293T cells; also: % is scaled to controls: 0 for no effect and ±100 for the full control effect; nearly all actives have a fitted effect of over 45% in size; luciferase light after 4 h
Cruzain noTriton: qHTS Assay for Promiscuous and Specific Inhibitors of Cruzain (without detergent); Cruzipain (Trypanosoma cruzi), P25779; purified cruzain, Z-FR-AMC fluorescence, no detergent; Potency, µM, for the others: max response, negative = inhibition, most hits filed as inhibitors; 200,000 tested, 2.3% active; active = well fitted curve in the direction sought with a large enough effect; inconclusive = small, poorly fitted or top-dose-only effect, or another doubt; inactive = no such curve, though single readings can be large; an effect the other way counts as inactive or inconclusive;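 also: plate controls were enzyme without inhibitor for no effect and buffer without enzyme for full effect; nearly all actives have a fitted effect of over 40% in size; top concentration of the series not given in the record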
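Detergent-free condition (0.00005% Triton X-100) in acetate buffer pH 5.5 with DTT. 1.5 nM enzyme and compound were pre-mixed 15 min, then 2 uM Z-FR-AMC substrate added; reaction progress from fluorescence change between first and third reads (60 s).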
NS1 function inh: qHTS Assay for Inhibitors of Influenza NS1 Protein Function | S. cerevisiae slowed by influenza A NS1, growth recovery by OD600 | Potency, µM (series often up to 46.1 µM), for the others: at the top dose activity, positive = more growth | 270,000 tested, 0.4% active | AID 2326, 2010; also: actives are rising curves; nearly all actives have a fitted effect of over 50% in size
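A cell-based growth assay was used: compounds that relieve NS1-induced slow growth of budding yeast raise OD600. Assay medium was yeast nitrogen base with ammonium sulphate and -URA supplement, pH 6.0, with 2% galactose.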
SARS PLpro yeast: qHTS of Yeast-based Assay for SARS-CoV PLP; 330,000 tested, 0.19% active; S. cerevisiae expressing SARS-CoV PLpro, growth rescue; control for the full effect not named in the record; Potency, µM (doses to about 32.9 µM), for inactives: top-dose activity, positive = growth rescue; AID 485353, 2010; also: 0% is about no effect; nearly all actives have a fitted effect of over 55% in size; growth read by luminescence after 48 h
* hit, by the source's call; ? = inconclusive; . = not tested or not shown; [ ] = remark or other dose. Unless noted, calls follow the shape of the dose curve; as a rule, active means well fitted rising curve with a large enough effect; inconclusive means small, poorly fitted or top-dose-only effect; inactive means no such curve, though single readings can be large or run the other way. Potency is read from the fitted curve at half-maximal effect.

SMILES | LASV entry inh | Marburg entry inh | RE007 growth inh | Cruzain Triton | 2A StopGo | Cruzain noTriton | NS1 function inh | SARS PLpro yeast
CCCCc1cc(=O)oc2cc(OCC(=O)N3CCC(C(N)=O)CC3)ccc12 | . | . | -10% | . | 5% | . | 7% | 6%
Cc1c(C)c2ccc(OCC(=O)NC3CCN(Cc4ccccc4)CC3)c(C)c2oc1=O | 25%[46.1 µM] | ? | -19% | . | -6% | . | -7% | 7%
Cc1cccc(NC(=O)CCn2cnc3ccccc3c2=O)c1 | ? | . | . | -0.7% | -3% | -11% | . | .
CCOc1ccccc1NC(=O)COC(=O)/C=C/c1ccc(OC)c(OC)c1 | -22% | ? | 8% | . | 18µM* | . | 2% | -2%
CC(=O)CSc1nc(-c2ccccc2)c(-c2ccccc2)o1 | . | . | -4% | . | 13% | . | -8% | -7%
Cc1cccc(-n2c(C)cc(/C=N\NC(=O)c3cccs3)c2C)c1 | ? | ? | -2% | -13% | -22% | -23% | 29% | -15%
CC(C)(C)C(=O)NC(=S)Nc1ccccc1F | 1% | 16% | -24% | -1.3% | 31%[activator] | 4% | -2% | ?
Brc1ccc2oc(-c3ccn[nH]3)cc2c1 | ? | -16%[46.1 µM] | -2% | . | 26% | . | -5% | -6%
CC(=NO)C1CCC2C3CCC4=CC(=NO)CCC4(C)C3C(=O)CC12C (stereo not given) | 15%[46.1 µM] | -16%[46.1 µM] | 1% | . | -21% | . | . | .
O=C(COc1ccc(F)cc1Cl)Nc1cc(S(=O)(=O)N2CCOCC2)ccc1N1CCCCC1 | ? | ? | 3% | . | -12% | . | 3.5µM* | -1%
NC(=O)c1nc(-c2cccs2)nc2c1[nH]c(=O)n2-c1ccc(F)cc1 | . | . | 8% | . | -12% | . | -1% | -1%
CCOc1ccccc1CNC(=O)c1cc(-c2ccc(C)c(C)c2)nc2ccccc12 | -15%[46.1 µM] | . | . | 1.6% | 0% | -3% | . | .
Cc1sc2ncnc(OCC(=O)Nc3ccc4c(c3)OCCO4)c2c1C | -2% | 7% | 8% | 0.3% | 8% | -7% | 8% | 1%
Cc1cc(NC(=O)CSc2c3c(nc4ccccc24)CCC3)no1 | . | . | 16% | 0.5% | ? | 2% | -1% | -12%
NS(=O)(=O)c1ccc(CCNC(=O)COC(=O)C2CCCN2C(=O)c2cccs2)cc1 (stereo not given) | -2% | ? | 1% | 2.0% | 1% | -2% | -1% | 1%
COc1ccc(-c2cc(C(F)F)n3ncc(C(=O)N4CCN5CCCC5C4)c3n2)cc1 (stereo not given) | ? | ? | 10% | -10% | 6% | -6% | -3% | 2%
c1ccc(Nc2nnc(SCc3cccc4ccccc34)s2)cc1 | -5% | 9%[46.1 µM] | 8% | 4.4% | -18% | ? | -1% | -6%
c1ccc2c(c1)OCC(c1nnc3sc(-c4ccc5c(c4)OCO5)nn13)O2 (stereo not given) | ? | 27% | -15% | -3.5% | 54%[activator] | 5% | -114% | -5%
CCOc1ccc(NC(=O)c2ccc(Br)o2)c([N+](=O)[O-])c1 | ? | ? | 6% | 4.0% | 14% | ? | 11% | 0%
Cc1cc(C)c(NC(=O)CN2C(=O)NC(Cc3ccccc3)C2=O)c(C)c1 (stereo not given) | 16% | 26%[46.1 µM] | -12% | . | 0% | . | 3% | 1%
Cc1cccc([C@@H]2[C@@H]3C(=O)N(Cc4ccccc4)C(=O)[C@@H]3[C@]3(CC(C)C)C(=O)N(c4cccc(Br)c4)C(=O)N23)c1 | . | . | -2% | . | -17% | . | 5% | 1%
Cc1cccn2c(=O)c3cc(C(=O)NCc4ccco4)c(=N)n(CCc4ccccc4)c3nc12 | 21%[46.1 µM] | ? | -12% | . | -17% | . | -1% | -1%
Cc1ccc(S(=O)(=O)c2cnc(SCC(=O)Nc3ccccc3C(F)(F)F)[nH]c2=O)cc1C | . | 0%[46.1 µM] | . | -9.1% | -10% | ? | . | .
Cc1cccc(C)c1NC(=S)Nc1ccc(Cl)c(Cl)c1 | 3%[46.1 µM] | ? | 2% | . | 2% | . | -35% | -1%
CC(=O)N1c2ccc(S(=O)(=O)N(C)CC(=O)Nc3ccccc3C)cc2CC1C (stereo not given) | 6%[46.1 µM] | 10%[46.1 µM] | 15% | . | -21% | . | 0% | 0%
O=[N+]([O-])c1ccc(S(=O)(=O)Nc2ncccn2)cc1 | . | . | 17% | . | -15% | . | 3% | 4%
c1ccc(SCc2cn3cccnc3n2)nc1 | ? | ? | -13% | . | 14% | . | -5% | 4%
Cc1ccc(C(=O)Sc2cccccc2=O)cc1 | ? | ? | ? | . | 0% | . | -78% | -12%
O=S(=O)(c1ccc(F)cc1)c1snnc1-c1ccccc1 | ? | ? | -12% | . | ? | . | . | -15%
Cc1nn(C)cc1S(=O)(=O)N1CCCCC1C (stereo not given) | ? | 16%[46.1 µM] | 11% | . | -18% | . | 0% | 3%
O=S(=O)(Nc1cccnc1)c1cc(Cl)ccc1Cl | 0% | 6% | -16% | 5.3% | . | 8% | -9% | 5%
Cc1cc(C)cc(-n2nnc(C(=O)NCc3ccco3)c2N)c1 | 3% | 8% | 14% | -0.5% | -18% | 0% | -2% | -11%
CSc1nc(N)n(-c2cc(C(F)(F)F)ccn2)n1 | 0% | 7%[46.1 µM] | -19% | . | -12% | . | 0% | 0%
COC(=O)Cn1cnc2c(nnn2-c2ccc(OC)cc2)c1=O | . | . | 18% | . | 5% | . | -2% | -1%
CSc1cccc(NC(=O)C2C3C=CC4(O3)C2C(=O)N(CCN2CCOCC2)C4C(=O)NC2CCCCC2)c1 (stereo not given) | 9%[46.1 µM] | -29%[46.1 µM] | 6% | . | 6% | . | -4% | 14%
O=C(NC(=S)N1CCCC1)c1ccccc1F | -4% | -3% | 3% | . | -9% | . | . | -1%
CCOc1ccc(CC(=O)NCCc2cnc[nH]2)cc1 | 27%[46.1 µM] | 17%[46.1 µM] | -10% | . | -19% | . | -1% | 1%
N#Cc1cc2c(=O)n3ccccc3nc2n(Cc2cccnc2)c1=O | 0% | -7%[46.1 µM] | -18% | . | 21% | . | -1% | .
O=[N+]([O-])c1ccc2c(c1)C(N1CCOCC1)/C(=C/COc1ccc(Cl)cc1Cl)O2 (stereo not given) | ? | ? | -1% | -5.4% | ? | -19% | 16% | -5%
Cc1cc(C)c(C(=O)/C=C/C=C/c2ccccc2)c(=O)[nH]1 | -14% | 5% | -24% | -11% | 39%[activator] | 2% | -10% | -2%
CCOc1ccc2nc(SCC(=O)Nc3cccc(S(=O)(=O)NC4=NCCCCC4)c3)[nH]c2c1 | -15%[46.1 µM] | ? | 3% | . | -25% | . | . | 1%
Cc1ccc(-n2c(SCC(=O)N/N=C/c3ccccc3C(=O)O)nnc2-c2ccc(Cl)cc2)cc1 | -6% | 10%[46.1 µM] | 16% | . | -3% | . | 16% | 0%
Cc1cc(=O)oc(C)c1C(=O)NCCN(C)Cc1ccccc1 | -14% | 1%[46.1 µM] | 17% | . | -6% | . | -3% | 2%
CS(=O)(=O)N1CCC(C(=O)N2CCC(Cc3ccccc3)CC2)CC1 | -25% | 6% | 16% | 1.4% | . | 13% | 9% | -3%
Cc1c(C(=O)Nc2ccc(F)cc2F)oc2ccc3c(c12)C(=O)CC(C)(C)O3 | 19%[46.1 µM] | . | . | -3.4% | 0% | -21% | . | .
O=C(CCc1ccccc1)Nc1ccc(N2CCCCC2)cc1 | ? | ? | -2% | -2.5% | 55%[activator] | 12% | 8% | -10%
COc1ccc(CNC(=O)COC(=O)c2cncc(Br)c2)cc1 | -6% | -25%[46.1 µM] | 11% | . | 6% | . | . | 0%
COC(=O)[C@@H](NC(=O)CCc1nnc(-c2ccsc2)o1)C(C)C | 12%[46.1 µM] | 4%[46.1 µM] | 22% | . | 13% | . | -2% | 0%
Cc1cc(NC(=O)CSc2nc3ccccc3cc2C#N)no1 | 8% | -15%[46.1 µM] | -6% | . | 36%[activator] | . | -13% | -5%
CCCCCCCCCCCCCCCC(=O)OCC1OC(n2ccc(N)nc2=O)C(O)C1O (stereo not given) | -10% | 2% | -12% | . | -2% | . | . | .
Cc1c(C(=O)N2CCCCC2)c(S(=O)(=O)NCCc2ccc(Cl)cc2)c(C)n1C | . | . | 0% | . | 40%[activator] | . | -8% | -2%
COc1ccc(NS(=O)(=O)c2ccc(C)c(NC(=O)C3CCCO3)c2)cc1 (stereo not given) | -12% | -23% | -7% | . | 0% | . | . | 2%
CCc1nn(CC(=O)N2CCN(c3cccc(C(F)(F)F)c3)CC2)c(=O)c2cccn12 | 2%[46.1 µM] | ? | . | -1.7% | -9% | -9% | . | .
Cc1cc(=O)oc(C)c1C(=O)N1CCN(C(c2ccccc2)c2ccccc2)CC1 | -13% | 3% | 11% | -2.5% | -10% | ? | -40% | -3%
COc1ccc(/C=N/n2c(SC)nnc(C(C)(C)C)c2=O)c(OC)c1 | 6.3µM* | -6% | 3% | -0.4% | -21% | 0% | -1% | 10%
COC(=O)C(C)NC(=O)CNS(=O)(=O)c1ccc(F)cc1 (stereo not given) | -17%[46.1 µM] | -1%[46.1 µM] | 3% | . | -3% | . | . | 0%
CCOC(=O)c1sc(=S)n(C)c1N | -4% | -14% | 1% | 2.3% | -2% | -5% | -10% | 0%
O=C(Cn1cc(SCc2ccccc2F)c2ccccc21)N1CCCCC1 | 19%[46.1 µM] | . | . | -3.2% | 8% | -8% | . | .
COc1ccc(C(=O)O)cc1Nc1cc(C)nc2ncnn12 | . | . | -9% | 0.4% | -24% | -13% | -5% | 1%
CCCNC(=O)NC(=O)COc1ccc2oc3ccccc3c2c1 | -1% | 10% | 1% | 1.8% | 3% | 6% | -48% | -7%
COc1ccccc1N1CCN(Cc2nc(N)nc(Nc3ccc(C)cc3)n2)CC1 | ? | ? | 16% | 0.4% | ? | 7% | 0% | 1%
